KCNQ2 enhance: enhances the rat KCNQ2 potassium channel; O88943; 0.54% of 310,000 active; CHO-K1 KCNQ2, FluxOR thallium flux fluorescence; hits give high values; AID 2239; B-score at 10 µM;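 active = fluorescence ratio B-score at least 3 SD of library B-scores, with initial fluorescence B-score within 3 SD, cut at about 5.3 in these data; same plate scores as AID 2156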;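 note: B-score of peak minus minimum over baseline fluorescence ratio after K+ and Tl+ stimulus; positive B-score means potentiation of KCNQ2 with more thallium influx and brighter signal; only the inactives scoring about 0 or higher are listed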
Target sequence (O88943 whole entry, looked up): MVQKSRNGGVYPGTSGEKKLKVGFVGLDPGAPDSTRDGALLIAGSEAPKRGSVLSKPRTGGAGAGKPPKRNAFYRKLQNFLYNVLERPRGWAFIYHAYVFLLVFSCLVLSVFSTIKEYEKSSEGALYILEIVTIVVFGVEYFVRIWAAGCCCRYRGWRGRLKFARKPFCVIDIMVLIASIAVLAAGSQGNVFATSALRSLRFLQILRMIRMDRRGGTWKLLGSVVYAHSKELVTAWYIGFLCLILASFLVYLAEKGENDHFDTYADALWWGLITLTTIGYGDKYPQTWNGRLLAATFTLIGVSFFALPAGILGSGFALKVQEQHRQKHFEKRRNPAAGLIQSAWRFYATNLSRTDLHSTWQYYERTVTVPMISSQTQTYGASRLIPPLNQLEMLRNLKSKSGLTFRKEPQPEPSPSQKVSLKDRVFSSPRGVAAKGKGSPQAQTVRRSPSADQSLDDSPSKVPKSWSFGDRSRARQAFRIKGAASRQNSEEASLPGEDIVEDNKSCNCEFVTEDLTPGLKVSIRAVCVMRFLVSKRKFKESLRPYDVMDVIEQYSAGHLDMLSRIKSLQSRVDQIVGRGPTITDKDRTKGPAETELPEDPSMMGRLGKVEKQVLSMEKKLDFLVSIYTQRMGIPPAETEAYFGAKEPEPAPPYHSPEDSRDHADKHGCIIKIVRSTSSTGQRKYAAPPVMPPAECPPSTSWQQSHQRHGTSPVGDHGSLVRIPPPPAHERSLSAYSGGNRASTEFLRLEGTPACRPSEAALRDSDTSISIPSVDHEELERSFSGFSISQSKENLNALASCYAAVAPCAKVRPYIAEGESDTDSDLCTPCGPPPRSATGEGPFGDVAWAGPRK
KCNQ2 enhance baseline: further read-out of KCNQ2 enhance, marked with its call; B-score; compound at 10 µM; measured here: initial fluorescence intensity artifact check;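 brightness before thallium and not channel activity; 0 = typical well and far values either way flag optical interference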
The depositor's hits bear a star. The list is partial. The share of hits here may be higher or lower than overall.

The line under a structure holds: KCNQ2 enhance, KCNQ2 enhance baseline
COc1ccc(NC(=O)c2ccccc2NS(C)(=O)=O)cc1OC
 : 0.81, -0.25
O=C(COc1ccccc1F)NC1CCN(Cc2ccccc2)CC1
 : 0.35, 1.2
COC(=O)NCc1ccc(Cl)c(Cl)c1
 : 0.11, 1.1
c1ccc2c(c1)[nH]c1c(NCC3CCCO3)ncnc12 (centres undefined)
 : 0.7, -1.7
CSc1nc2c(cnn2-c2ccc(C)c(C)c2)c(=O)[nH]1
 : 2, -0.58
Cc1nnc(SCc2ccc(Cl)cc2)n1CC1CCCO1 (centres undefined)
 : 2.2, -0.36
COc1ccc(NC(=O)Nc2ccccc2)cc1S(=O)(=O)N1CCCCC1
 : 0.18, -0.15
COc1cc(/C=N/N=C(\N)c2nonc2N)cc(OC)c1O
 : 0.75, 1.3
COc1ccc(C(=O)C2CCCN(Cc3cnc(N4CCOCC4)s3)C2)cc1F (centres undefined)
 : 0.01, -0.15
CC(C)OCCCn1c(=O)c2ccccc2n2c(CCC(=O)NCc3ccccn3)nnc12
 : 1.6, 0.63
COc1ccc(NC(=O)CSc2nc3[nH]ncc3c(=O)n2-c2ccccc2OC)cc1OC
 : 0.99, -0.46
Cn1ncc(Br)c1C(=O)NC1CCCCCCC1
 : 1.4, -0.75
CCc1cccc2c(C(=O)COC(=O)c3cccc(S(=O)(=O)N(C)C4CCCCC4)c3)c[nH]c12
 : 2.9, -0.33
CCCCC(=O)Nc1nnc(S(=O)(=O)N2CCCc3ccccc32)s1
 : 0.06, 1.3
Nc1c(-c2ccccc2)nnn1Cc1ccccc1
 : 0.09, 0.55
COc1cc2cc(CN(CCO)S(=O)(=O)c3ccccc3Cl)c(=O)[nH]c2cc1OC
 : 1.3, 0.76
CC(C)NC[C@H](O)COc1cccc2[nH]ccc12
 : 0.57, 2.6
Cc1cccc(CNS(=O)(=O)c2ccc(-c3ccc(=O)[nH]n3)s2)c1
 : 0.46, -1.2
CC(=O)c1cc(-c2ccccc2)n(CC(=O)Nc2ccc(C)c(C)c2)c1C
 : 0.07, -1.9
Nc1ccc2nc(-c3ccccn3)[nH]c2c1
 : 1.3, -1.7
CCOc1cc2[nH]c(=S)n(CCc3ccc(OC)c(OC)c3)c(=O)c2cc1OCC
 : 1.5, -0.62
O=C(ONC1=NCCCCC1)c1ccc([N+](=O)[O-])cc1
 : 1.2, -1.2
CCOC(=O)c1cc(CC)sc1NC(=O)COc1ccc2c(C)cc(=O)oc2c1
 : 0.15, 2.4
O=C(Nc1ccc2c(c1)OCO2)C1CCN(C(=O)c2ccc(Cl)cc2)CC1
 : 0.5, 2.2
Cc1ccc(S(=O)(=O)N(C)C)cc1-n1c(SCC(=O)N(C)C)nc2ccccc2c1=O
 : 0.48, 1
Cc1c(C(=O)NCC2CCCO2)oc2ccc(S(=O)(=O)N3CC(C)CC(C)C3)cc12 (centres undefined)
 : 2.5, -0.46
O=c1[nH]c(-c2ccccc2)cnc1-c1ccccc1
 : 0.48, 1.8
CC(=O)c1cn(S(=O)(=O)c2ccccc2)c2ccccc12
 : 0.82, -0.1
CCOC(=O)C1=C(O)C(=O)N(C2CCCCC2)C1
 : 1.2, 1.7
CC(Sc1nc(-c2ccccc2)cc(C(F)(F)F)n1)C(=O)N1CCC(C(N)=O)CC1 (centres undefined)
 : 0.7, 0.17
N#CCCn1nnc(-c2ccccc2F)n1
 : 1.1, 0.45
CCN(CC)S(=O)(=O)c1ccc2c(c1)c(C(=O)O)cn2C
 : 1.9, 0.83
O=C(CCl)c1ccc2c(c1)CCN2C(=O)C1CCCCC1
 : 0.08, -0.78
Cc1ccc(S(=O)(=O)N/N=C/c2cccs2)cc1
 : 1.5, -0.06
CCCCC(=O)NNC(=O)CC(=O)Nc1ccccc1C(=O)O
 : 1.6, 0.43
Cc1ccc(OCC(=O)OC2CCS(=O)(=O)C2)cc1 (centres undefined)
 : 0.74, -0.27
Cc1ccc(C(=O)C(C)OC(=O)CNC(=O)c2ccc(Br)o2)cc1 (centres undefined)
 : 0.97, 0.44
CCCCNC(=O)c1cc2c(-c3ccc(Cl)cc3)nn(C)c2s1
 : 2.4, -0.48
Cc1ccc(NC(=O)c2ccc(-n3cncn3)c([N+](=O)[O-])c2)cc1
 : 0.89, 0.89
Cc1ccc(CNC(=O)N2CCN(C)CC2)cc1
 : 1.1, 0.62
Cc1ccc2occ(/C=N/NC(=O)c3ccncc3)c(=O)c2c1
 : 0.05, 0.24
CC(=O)NCC1CCCN(Cc2cn(-c3ccccc3)nc2-c2ccc3c(c2)OCO3)C1 (centres undefined)
 : 0.06, -0.43
Cc1c(-c2csc(N)n2)cnn1C
 : 0.6, -0.04
O=C(CSc1nnc(COc2ccc(Cl)cc2)o1)N1CCOCC1
 : 0.1, 1.6
O=C(CN1CCCC1)Nc1ccc([N+](=O)[O-])cc1
 : 1.6, 1.2
CC(C)Oc1ccc(C(=O)NCc2cccnc2)cc1
 : 0.51, 1.4
Fc1cccc(Nc2c3c(nc4ccccc24)CCC3)c1
 : 0.02, -1.6
O=C(NC(=S)N1CCCCC1)C12CC3CC(CC(C3)C1)C2
 : 0.16, 2.2
CCOc1ncccc1C(=O)OCC(=O)Nc1ccc(C)c(S(=O)(=O)N(C)C)c1
 : 1.8, -2.6
CCOC(=O)c1sc(NC(=O)c2cc(-c3ccccc3)nc3ccccc23)c(C#N)c1C
 : 0.7, -1.2

(cont.)
The line under a structure holds: KCNQ2 enhance, KCNQ2 enhance baseline
Cc1ccc(Cn2ccc(NC(=O)c3noc4c3CCCCC4)n2)cc1
 : 0.9, 0.02
CC1(C)CC(=O)c2sc(NS(=O)(=O)c3cc(Cl)ccc3Cl)nc2C1
 : 0.44, -0.89
CCC(=O)Nc1nc(C)cc(SCC(=O)OC)n1
 : 0.24, 1
O=C(CCn1cccn1)Nc1ccc2c(c1)OCO2
 : 0.6, -0.21
CCOC(=O)N1CCN(C(=O)c2nn(-c3ccc(C)cc3)c(=O)c3c2c2ccccc2n3C)CC1
 : 0.85, -0.85
COc1ccccc1N1C(=NC(=O)COc2ccccc2)SC2CS(=O)(=O)CC21 (centres undefined)
 : 0.38, -1.4
NS(=O)(=O)c1cccnc1Nc1cccc(C(F)(F)F)c1
 : 3, -0.46
COc1ccc(OCCSc2n[nH]c(N)n2)cc1
 : 0.03, -3.1
Cc1ccc(OCC(=O)NCCCNC(=O)COc2ccc(C)cc2)cc1
 : 0.49, -1.1
CC(C)(Oc1ccc(Cl)cc1)C(=O)Nc1ncccn1
 : 0.14, -1.3
O=C(Nc1ccc(N2CCOCC2)nc1)c1ccc(F)cc1
 : 1.2, 0.26
Cc1nc(C(=O)NCCCO)cc2c1[nH]c1ccccc12
 : 1.3, -0.76
CN1C2=NCCN2C(=O)c2cc(Cl)ccc21
 : 0.02, 0.36
CCC(=O)Nc1nc2cc(OC)ccc2s1
 : 2.8, -0.91
Cn1ccc(C(=O)OCC(=O)Nc2cccc(Cl)c2)n1
 : 1.9, 0.01
O=C(Cn1cnc2cc([N+](=O)[O-])ccc2c1=O)NC1CCS(=O)(=O)C1 (centres undefined)
 : 1.5, -2.4
C(=N\n1cnnc1)/c1ccc2ncccc2c1
 : 0.98, -3.3
CC(=O)c1c(C)[nH]c(C(=O)COc2ccc3ccc(=O)oc3c2)c1C
 : 1, 1.2
O=C(Nc1ccccc1)c1ccc2snnc2c1
 : 1, 0.68
O=C(CCNC(=O)c1ccccc1Cl)NCCc1ccc(Cl)cc1
 : 0.29, -0.25
CCCOc1ccc(-c2nc(C#N)c(NCCCn3ccnc3)o2)cc1
 : 0.01, -0.53
O=C(CN1CCN(Cc2ccccc2)CC1)Nc1ccccc1
 : 0.67, -0.9
Cc1ccccc1OCC(=O)Nc1sc2c(c1C#N)CC(C)(C)NC2(C)C
 : 0.1, -1.6
CCn1ncc(CN2CCCC(C(=O)c3cccc(OC(C)C)c3)C2)c1C (centres undefined)
 : 0.66, 0.03
OCCCNc1nc(-c2ccccc2)nc2c1oc1ccccc12
 : 2.2, -1.3
COc1ccccc1C(=O)Nc1ccc(C(=O)O)cc1
 : 0.47, 0.36
COc1ccc(CCNC(=O)CCn2c(=O)oc3ccccc32)cc1OC
 : 1.1, 0.09
C=CCn1c(C(c2ccccc2)c2ccccc2)n[nH]c1=S
 : 0.45, -0.91
CC(C)(C)c1csc(NC(=O)Cc2cccs2)n1
 : 2.9, -0.15
CCn1c(C)cc(/C=C2/SC(=S)N(CC(=O)O)C2=O)c1C
 : 0.72, -0.01

Compound profiles, from the list above. Screens in order: KCNQ2 enhance, KCNQ2 enhance baseline
`OCCCNc1nc(-c2ccccc2)nc2c1oc1ccccc12` as listed: 2.2, -1.3
`CCn1ncc(CN2CCCC(C(=O)c3cccc(OC(C)C)c3)C2)c1C` (centres undefined) as listed: 0.66, 0.03
`Cc1ccccc1OCC(=O)Nc1sc2c(c1C#N)CC(C)(C)NC2(C)C` as listed: 0.1, -1.6

(list continues)
The line under a structure holds: KCNQ2 enhance, KCNQ2 enhance baseline
Cc1cnc(C(=O)Nc2cccc3cccnc23)cn1
 : 0.28, -0.69
O=C(NC1=NCCS1)NC12CC3CC(CC(C3)C1)C2
 : 0.01, -0.51
Cc1cccc(C(=O)NC(C)C(c2cccs2)N2CCOCC2)c1 (centres undefined)
 : 0.59, -1
CCOc1ccc(C(=O)NCC(C)CN(C)C)cc1OCC (centres undefined)
 : 0.18, 2.2
O=C(NCc1ccco1)c1ccc(F)c(S(=O)(=O)N2CCCCC2)c1
 : 0.02, 2
CCOC(=O)c1sc2nc(-c3ccccc3)ccc2c1N
 : 0.3, -0.15
O=C(Nc1cccc(Cl)c1)Nc1ccccc1-n1ccnc1
 : 0.01, -0.4
CCCC1=C(C(=O)OCC)C(c2ccncc2)n2ncnc2N1 (centres undefined)
 : 0.67, -0.76
O=C(NNC(=S)Nc1ccc(OC(F)F)cc1)c1cc2c(s1)CCCC2
 : 0.1, 0.03
O=C(O)c1c(-c2ccccc2)c2oc3ccccc3c2[nH]c1=O
 : 0.79, -1.2
COc1ccc(-c2cc(C(=O)NC3CCCC3)no2)cc1OC
 : 1.6, -0.58
O=S(=O)(c1ccc(F)cc1F)N1CCCN(c2ccc(C(F)(F)F)cn2)CC1
 : 0.06, -0.24
Cc1ccc(S(=O)(=O)N2CCN(c3cc4c(cc3[N+](=O)[O-])n(C)c(=O)n4C)CC2)cc1
 : 0.01, 0.36
Cc1cc(C)n(CCNC(=O)c2ccco2)n1
 : 0.28, -0.56
CCc1ccccc1NC(=O)CN1C(=O)C2CCCN2c2ncc(Cl)cc21 (centres undefined)
 : 0.48, 1.5
COc1ccc(N2CCN(C(=O)CSc3nc(C)cs3)CC2)cc1
 : 0.06, -0.12
CC(Nc1nc(-c2ccc(F)cc2)cs1)c1nc2cc(Cl)c(N3CCCCC3)cc2n1CCCO (centres undefined)
 : 0.62, 1.4
CCOc1ccccc1OCCOc1ccc(F)cc1
 : 0.05, 0.2
O=C1COc2ccc(NC(=O)N3CCN(c4ccc(F)cc4)CC3)cc2N1
 : 2.1, -0.06
CCn1cc(S(=O)(=O)NCc2ccc3c(c2)OCO3)cn1
 : 0.88, 0
NC(=O)c1nsc(C(=O)N(c2ccc(F)cc2)C(C(=O)NCC2CCCO2)c2ccc3ncccc3c2)c1N (centres undefined)
 : 2.5, -0.53
CCOC(=O)CNC(=O)CSc1nc(Cc2ccccc2)nc2ccccc12
 : 0.02, 3.1
CC1CN(C(=O)c2ccccc2)C(=Nc2cccc(S(=O)(=O)N(C)C)c2)S1 (centres undefined)
 : 0.41, 0.23
Cc1cc(NCCN2CCOCC2)n2c(nc3ccccc32)c1C#N
 : 1.2, 2
Cc1cc(=O)oc2cc(O[C@@H]3O[C@H](CO)[C@H](O)[C@H](O)[C@H]3O)ccc12
 : 0.32, 0.24
CCc1nnc(NC(=O)c2c(O)c3c([nH]c2=O)CCCC3)s1
 : 0.61, -0.86
CC(C)N(CC(=O)Nc1ccc(Cl)cc1C(F)(F)F)C(=O)CCl
 : 0.89, 0.14
CCN(CC(=O)Nc1ccc(NC(C)=O)cc1)C(=O)c1oc2ccccc2c1C
 : 1.5, -0.95
CCOc1ccc(NS(=O)(=O)c2cc(OCC(N)=O)c(C)cc2Cl)cc1
 : 0.63, -2.3
O=C(O)C1CCN(S(=O)(=O)c2ccc(Oc3ccccc3)cc2)CC1
 : 0.21, 0.1
O=C(CSc1nnc(CNC(=O)c2ccc(F)cc2)o1)NCCc1ccccc1
 : 0.65, -0.56
CC(=O)n1cc(/C=N/NC(=O)c2ccccc2O)c2ccccc21
 : 0.84, -0.1
CCS(=O)(=O)N1CCCC(C(=O)NCc2cccnc2)C1 (centres undefined)
 : 2.1, -1.6
CC(=O)c1cccc(NS(=O)(=O)c2cc3c(cc2C)N(C(C)=O)CCO3)c1
 : 0.37, 2.5
Cc1ccc(C(C(=O)NC2CCCC2)N2CCCCC2)cc1 (centres undefined)
 : 1.2, 0.05
CC(/C=C/c1ccccc1)=N\NC(=S)NC(C)C
 : 0.41, -1.9
Cc1cc(SCC(=O)NCC(c2cccs2)N2CCOCC2)c(C)cc1Br (centres undefined)
 : 5.4*, -1*
CCOC(=O)Cc1csc(NC(=O)c2cccc(OC)c2)n1
 : 0.36, -0.07
Cc1cc(C(=O)O)ccc1-c1ccc(/C=C2\NC(=O)N(Cc3ccccc3Cl)C2=O)o1
 : 1.4, -0.46
COc1ccc(Cl)cc1NC(=S)Nc1cccnc1
 : 0.05, 0.98
CCn1ncc([N+](=O)[O-])c1C(=O)N1CCCC1
 : 1.9, -0.98
Cc1ccc(S(=O)(=O)N2CCN(C(=O)CSc3nc4ccccc4o3)C2)cc1
 : 1.5, -2.4
NS(=O)(=O)c1ccc(NC(=O)/C(=C/c2ccncc2)NC(=O)c2ccccc2)cc1
 : 0.22, -0.71
CCc1c(C)nc(SCC(=O)Nc2ccc(Br)cc2)[nH]c1=O
 : 0.48, 0.93
C=CCn1c(COc2ccc(CC)cc2)nnc1SC/C(O)=C(\C#N)c1nc2ccccc2[nH]1
 : 0.34, -1.3

From PubChem
